Assay outcomes (PubChem)
E coli growth – E. coli growth inhibition. Escherichia coli growth, OD600, 23 h; stronger effect = lower value. OD600 absorbance (no concentration beside the values). actives 0.21% (n = 330,000);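 active means OD600 absorbance below the run mean of sample wells minus 3.6 SD, in any replicate, cut at about 0.56 in these data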;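 further: stock transfer was 300 nL into about 60 µL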
* hit, by the source's call; & = joins results of further samples. Some of the compounds tested; count on the stated rates, not on these rows.

SMILES	E coli growth
COC(=O)c1ccccc1N1C(=O)C2C3C=CC(C3)C2C1=O (stereo not given)	0.716
c1ccc(C2C3CN(CC4CCCCC4)C(c4ccccc4)C34CC2(c2cccnc2)C4)cc1 (stereo not given)	0.688
C=CCCC(Cc1ccc(F)cc1)C(=O)OCC(Cc1c[nH]c2ccccc12)NC(=O)C(CC=C)CC(=O)NC(CO)Cc1ccccc1 (stereo not given)	0.767&0.675&0.761&0.694&0.683&0.742&0.76&0.73&0.75
N#CCC(Cc1ccccc1)N1CCC(NC(=O)OCc2ccccc2)CCC1=O (stereo not given)	0.694
CCOC(=O)C1C2COc3ccc(Br)cc3C2N2C(=O)c3c(C)cc(C)cc3NC(=O)[C@@]12C (stereo not given in full)	0.677
O=C1CCCC=CCC(CC(=O)N(CCO)Cc2ccccc2)C(=O)NC(c2ccccc2)CO1 (stereo not given)	0.662
COc1cc(C=C2C(=O)NN(c3ccccc3)C2=O)cc([N+](=O)[O-])c1O	0.666
O=C(NCc1nc2ccccc2[nH]1)C1=CC(c2ccc(Br)cc2)CC(OCc2ccc(CO)cc2)O1 (stereo not given)	0.731&0.723
NC(=O)C1=CC(c2ccc3c(c2)OCO3)CC(OCCCCO)O1 (stereo not given)	0.629
C#CCOCCOCCOCCNc1nc(N2CCN(C(=O)Cn3cc(CCO)nn3)CC2)nc(N2CCN(C(=O)C(Cc3ccc(O)cc3)n3cc(CCO)nn3)CC2)n1 (stereo not given)	0.655
C[C@@]12CCC=CC1C(c1ccc(F)c(C=Cc3ccccc3)c1)N(Cc1ccccc1)C2=O (stereo not given in full)	0.744
CCCOc1ccccc1NC(=NS(=O)(=O)c1ccc(C)cc1)Nc1nc(C)cc(C)n1	0.746
NC(=O)C1CCCNc2c(I)cc([N+](=O)[O-])cc2C(=O)NC(Cc2ccccc2)C(=O)NC(Cc2cnc[nH]2)C(=O)N1 (stereo not given)	0.69
C=C(C)C(=O)N1CC2(CC(c3cccc(NC(=O)c4ccccc4)c3)=NO2)CC1C(N)=O (stereo not given)	0.701
CC(CCC(=O)O)C1CCC2C3C(=O)CC4CC(=O)CC[C@]4(C)C3CC(=O)[C@]12C (stereo not given in full)	0.646
CC(C)CC(NC(=O)c1nc[nH]c1C(=O)NC(CCCCNC(=O)OC(C)(C)C)C(=O)OC(C)(C)C)C(=O)OCc1ccccc1 (stereo not given)	0.721
Cc1ccc(S(=O)(=O)N2CC(C(=O)O)=CCC2c2ccc(Cl)cc2)cc1 (stereo not given)	0.67
C#Cc1ccc(C2C=C(C(=O)NCc3ccccc3)OC(OCc3ccc(CO)cc3)C2)cc1 (stereo not given)	0.651&0.637
COC(=O)C1CC1C(NS(=O)(=O)c1ccccc1)c1ccccc1 (stereo not given)	0.716&0.682
CC1CN(C(C)CO)C(=O)c2cc(NC(=O)Nc3ccc(F)cc3)ccc2OC1CN(C)Cc1ccc(Oc2ccccc2)cc1 (stereo not given)	0.745
CCCSc1ccc(C2C3C(=O)N(CC)C(=O)C3[C@]3(C(=O)OC)CCCCN23)cc1 (stereo not given in full)	0.658&0.698
NCCCCC(N)c1nnc(C(CC(=O)O)NC(=O)C2CCNCC2)o1 (stereo not given)	0.722
CCCC(O)=C1C(=O)CC(c2ccccc2)CC1=NCCc1c(C)[nH]c2ccccc12 (stereo not given)	0.745
COCCN1C(=NCCCOC(C)C)NC(c2ccccc2)C(C(=O)OC)=C1C (stereo not given)	0.714
CCC(=O)OCC(=O)C1(OC(=O)CC)C(C)CC2C3C(Cl)CC4=CC(=O)C=C[C@]4(C)C3C(O)C[C@@]21C (stereo not given in full)	0.708

Taken from above, 5 compounds:
SMILES	E coli growth
COC(=O)c1ccccc1N1C(=O)C2C3C=CC(C3)C2C1=O (stereo not given)	0.716
c1ccc(C2C3CN(CC4CCCCC4)C(c4ccccc4)C34CC2(c2cccnc2)C4)cc1 (stereo not given)	0.688
C=CCCC(Cc1ccc(F)cc1)C(=O)OCC(Cc1c[nH]c2ccccc12)NC(=O)C(CC=C)CC(=O)NC(CO)Cc1ccccc1 (stereo not given)	0.767&0.675&0.761&0.694&0.683&0.742&0.76&0.73&0.75
N#CCC(Cc1ccccc1)N1CCC(NC(=O)OCc2ccccc2)CCC1=O (stereo not given)	0.694
CCOC(=O)C1C2COc3ccc(Br)cc3C2N2C(=O)c3c(C)cc(C)cc3NC(=O)[C@@]12C (stereo not given in full)	0.677

Remaining list, next part.
SMILES	E coli growth
CN1CCN(C(=O)C2=CC(c3ccc4c(c3)OCO4)CC(OCCCCO)O2)CC1 (stereo not given)	0.731
COC(=O)C1CC2CCC(O)CC2N1Cc1ccc(OC)cc1 (stereo not given)	0.678
CCN1CC2C3C(=O)N(C)C(=O)C3[C@](C)(C1=O)N2C(=O)c1ccc(C(C)(C)C)cc1 (stereo not given in full)	0.658
CCSc1nnc(NC(=O)C(NC(=O)c2cccc(C)c2)C(C)C)s1 (stereo not given)	0.626
CC[n+]1c(C=C2C=C(C)CC(C)C2)sc2ccccc21 (stereo not given)	0.7
CC(C)CC(CN=[N+]=[N-])N1CCN(C)CCC1=O (stereo not given)	0.671
Cc1ccccc1CN1CC2CC(c3cn[nH]c3-c3ccc(F)cc3)N3CCC[C@@]23C1=O (stereo not given in full)	0.709
C=C(C)C1CC[C@]2(C(=O)O)CC[C@]3(C)C(CCC4[C@@]5(C)CCC(O)C(C)(C)C5CC[C@]43C)C12 (stereo not given in full)	0.717
CC1CN(C(C)CO)C(=O)c2cccc(NC(=O)CCCCCC(=O)Nc3ccccc3N)c2OC1CN(C)C (stereo not given)	0.72
CCOC1OC(C(=O)N2CCN(Cc3ccccc3)CC2)=CC(c2cn(C(C)=O)c3ccccc23)C1CCCO (stereo not given)	0.656&0.664
CN(C)C=C(C(=O)c1ccccc1)n1cncn1	0.714
NC1=NCC(Cc2ccc(O)cc2)N1CCC12CC3CC(CC(C3)C1)C2 (stereo not given)	0.608&0.682
COc1ccc2c(c1)C1C(CO2)C(c2ccccc2)[C@]2(C)C(=O)Nc3cc(F)c(F)cc3C(=O)N12 (stereo not given in full)	0.71
CCCCC1CN=C(N)N1CCc1cccc(F)c1 (stereo not given)	0.667
C=CCC1CCCC(=O)N2CCC(O)C12 (stereo not given)	0.695
O=C1C2C(c3ccc(F)cc3)N3C(=O)N(c4cccc(Br)c4)C(=O)[C@@]3(Cc3ccc(Cl)cc3)C2C(=O)N1C1CCCCC1 (stereo not given in full)	0.701
COC1C=CO[C@@]2(C)Oc3c(C)c(O)c4c(O)c(c(C=NN5CCN(C)CC5)c(O)c4c3C2=O)NC(=O)C(C)=CC=CC(C)C(O)C(C)C(O)C(C)C(OC(C)=O)C1C (stereo not given in full)	0.074*
CN1N=C(C=Cc2ccccc2)CCC1=O	0.694
N#CC(=Cc1cccc(Cl)c1)c1n[nH]c(Cn2cncn2)n1	0.689
Oc1ccc(CC2CNCCN2CCc2cccc3ccccc23)cc1 (stereo not given)	0.648&0.679
CC[C@@]12C(=O)N(c3ccc(C)cc3)C(=O)N1C(c1cccc(C)c1)C1C(=O)N(Cc3ccccc3)C(=O)C12 (stereo not given in full)	0.704
COCC=CC1=CC2=CC(=O)C(C)(OC(=O)c3cnc4ccccc4n3)C(=O)C2=CN1Cc1ccco1 (stereo not given)	0.686
CC(=O)OCC(=O)[C@@]1(O)CCC2C3CCC4=CC(=O)CC[C@]4(C)C3C(O)C[C@@]21C (stereo not given in full)	0.726
O=C(O)c1ccc(NC2OCC(O)C(O)C2O)cc1 (stereo not given)	0.692
C#CCOCCOCCOCCNc1nc(N2CCN(C(=O)C(Cc3cc4ccccc4[nH]3)n3cc(C(N)Cc4ccc(O)cc4)nn3)CC2)nc(N2CCN(C(=O)C(C(C)CC)n3cc(C(N)CC(C)C)nn3)CC2)n1 (stereo not given)	0.61

Other entries follow:
SMILES	E coli growth
Cc1cccc(C(=O)ON=C(N)Cc2ccc([N+](=O)[O-])cc2)c1	0.653
CC(C)CC(NC(=O)c1nc[nH]c1C(=O)NCCNC(=O)OC(C)(C)C)C(=O)CNCCNC(=O)c1[nH]cnc1C(=O)NC(C)C(=O)OC(C)(C)C (stereo not given)	0.686
CCCCCOC(=O)C1C2C=C[C@]3(CN(CCCOC)C(=O)C13)O2 (stereo not given in full)	0.722
CC(Cl)=CCSc1nn2c(=O)c3ccccc3nc2s1	0.689
CC(NC(=O)c1nc[nH]c1C(=O)NC(CCCCNC(=O)OC(C)(C)C)C(=O)OC(C)(C)C)C(=O)OC(C)(C)C (stereo not given)	0.704
O=C(CC(c1ccccc1)(c1ccccc1)c1ccccc1)NC(Cc1ccc(O)cc1)C(=O)O (stereo not given)	0.646
CCN1C(=NCc2ccc(OC)cc2)NC(c2ccccc2)C(C(=O)OC)C1C (stereo not given)	0.707
CCOC(=O)CC1c2ccccc2S(=O)(=O)N1Cc1cc(OC)c(OC)c(OC)c1 (stereo not given)	0.679
CC(O)C1CN=C(N)N1CCCCC1CCCCC1 (stereo not given)	0.661
CC1NC(=O)c2cc([N+](=O)[O-])cc(F)c2NCCCC(C(N)=O)NC(=O)C(CC(N)=O)NC1=O (stereo not given)	0.667
CC1(C)C(O)CC[C@@]2(C)C1CC[C@]1(C)C2C(=O)C=C2C3C[C@@](C)(C(=O)O)CC[C@]3(C)CC[C@]21C (stereo not given in full)	0.711
CC1CCCCCCCCC(=O)OCCN(C(=O)OC(C)(C)C)C(C)CCCCCCCCC(=O)OCCN(C(=O)OC(C)(C)C)C(C)CCCCCCCCC(=O)OCCN(C(=O)OC(C)(C)C)C(C)CCCCCCCCC(=O)OCCN1C(=O)OC(C)(C)C (stereo not given)	0.694
O=C1C=C(c2cccc(O)c2)CC(c2ccc(F)cc2)C1 (stereo not given)	0.623
CCC(C)C(NC(=O)C(Cc1ccc(O)cc1)NC(=O)C(N)C(C)C)C(=O)NC(Cc1cnc[nH]1)C(=O)N1CCCC1C(=O)NC(Cc1ccccc1)C(=O)O (stereo not given)	0.627
CCCCCCCCCCCCN1C(CC(=O)O)c2cc(C(F)(F)F)ccc2S1(=O)=O (stereo not given)	0.715
CCC(C)C(CNC(C)CNC)NCCC(c1ccccc1)c1ccccc1 (stereo not given)	0.677
CCCOC(=O)C(=CC=Cc1ccco1)NC(=O)c1ccccc1	0.657
CC1OC(n2cc(F)c(=O)[nH]c2=O)C(O)C1O (stereo not given)	0.633
NCCCCCc1cn(C(CCC(=O)O)C(=O)NCCCCCCCCCCC(=O)N2CCNCC2)nn1 (stereo not given)	0.661
CCCCN1CCNCC1Cc1ccccc1 (stereo not given)	0.685
O=C1C=C(c2cccc(Cl)c2O)CC(c2ccc3c(c2)OCO3)C1 (stereo not given)	0.659
COCCNC(=O)[C@@]1(Cc2ccccc2)C=CC(C)N1C(C)=O (stereo not given in full)	0.694
CCC(C)Sc1ccc(C2C3C(=O)N(CC)C(=O)C3[C@]3(C(=O)OC)CCCCN23)cc1 (stereo not given in full)	0.771&0.684
CC(C(=O)Nc1ccc2ccccc2c1)C1C[C@]1(C)C(NC(=O)c1cnccn1)c1ccccc1 (stereo not given in full)	0.684
CCOC(=O)C1C2COc3ccc(Br)cc3C2N2C(=O)CN(Cc3ccc(F)cc3)C(=O)[C@@]12C (stereo not given in full)	0.656

Reformatted with each value named: part of the list above
CC1NC(=O)c2cc([N+](=O)[O-])cc(F)c2NCCCC(C(N)=O)NC(=O)C(CC(N)=O)NC1=O (stereo not given)
  E coli growth: 0.667
CC1(C)C(O)CC[C@@]2(C)C1CC[C@]1(C)C2C(=O)C=C2C3C[C@@](C)(C(=O)O)CC[C@]3(C)CC[C@]21C (stereo not given in full)
  E coli growth: 0.711
CC1CCCCCCCCC(=O)OCCN(C(=O)OC(C)(C)C)C(C)CCCCCCCCC(=O)OCCN(C(=O)OC(C)(C)C)C(C)CCCCCCCCC(=O)OCCN(C(=O)OC(C)(C)C)C(C)CCCCCCCCC(=O)OCCN1C(=O)OC(C)(C)C (stereo not given)
  E coli growth: 0.694
O=C1C=C(c2cccc(O)c2)CC(c2ccc(F)cc2)C1 (stereo not given)
  E coli growth: 0.623

(listing goes on)
SMILES	E coli growth
CCOc1ccc(NC(=O)CN2C(=O)SC(=Cc3cccn3C)C2=O)cc1	0.689
Cc1c(C(=O)N2CC3(CC(c4cccc(NC(=O)C5CCC(=O)N5)c4)=NO3)CC2C(N)=O)cc([N+](=O)[O-])cc1[N+](=O)[O-] (stereo not given)	0.69
C#Cc1ccc(C2C=C(C(=O)OCC=C)OC(OCc3ccc(CO)cc3)C2)cc1 (stereo not given)	0.667&0.714
CCOC(=O)C1C2COc3ccc(Cl)cc3C2N2C(=O)c3cc(F)c(F)cc3NC(=O)[C@@]12C (stereo not given in full)	0.696
CC1CN(C(C)CO)C(=O)c2cccc(NS(C)(=O)=O)c2OC1CN(C)Cc1ccc(Oc2ccccc2)cc1 (stereo not given)	0.651
CCN(CC)CCN1C(=O)C(=O)C(=C(O)c2ccccc2)C1c1ccccc1F (stereo not given)	0.69
CC(=O)N1C(C)C=C[C@]1(Cc1ccccc1)C(=O)NCc1cc(F)cc(C(F)(F)F)c1 (stereo not given in full)	0.691
CC(Cl)=CCn1c(N2CCCC2)nc2c1c(=O)[nH]c(=O)n2C	0.69
CC=CC=CC(=O)Nc1cccc(C2=NOC3(C2)CC(C(N)=O)N(C(=O)C2CCC(=O)N2)C3)c1 (stereo not given)	0.699
O=C(C=Cc1cccc([N+](=O)[O-])c1)n1cnc2ccccc21	0.712
CCN1C(=O)C2C(c3ccc(-c4ccc5c(c4)OCO5)c(OC)c3)N[C@@](Cc3ccccc3)(C(=O)OC)C2C1=O (stereo not given in full)	0.727
CCOC1OC(C(=O)N2CCCCCCC2)=CC(C2CCCCC2)C1CCCO (stereo not given)	0.669&0.712
C[C@@]12C(=O)Nc3ccccc3C(=O)N1C1c3cc(Cl)ccc3OCC1C2c1ccccc1 (stereo not given in full)	0.673
CN1CCN(C(=O)C2=CC(C3CCCCC3)CC(OCCCCO)O2)CC1 (stereo not given)	0.621
CCCCCCc1ccc(N2CC(C)C(CC(=O)NCc3ccccc3)C2=O)cc1 (stereo not given)	0.669
CCCCC(=O)N1CC=CC(c2ccc(OC)cc2)N(Cc2ccc(F)cc2)C(=O)C1 (stereo not given)	0.647
O=C(NC1CC1)C1=CC(c2ccc(C(F)(F)F)cc2)CC(OCCCCO)O1 (stereo not given)	0.721
CCN1C(=O)C2C(c3ccc(-c4cccc(Cl)c4)c(OC)c3)N3CCC[C@@]3(C(=O)OC)C2C1=O (stereo not given in full)	0.682
